# Source: PubChem
# Rango-impB inh: qHTS Assay for Inhibitors of Rango (Ran-regulated importin-beta cargo) - Importin beta complex formation | Rango CFP/YFP FRET sensor + importin beta, 45 min | Importin subunit beta-1 (Homo sapiens), Q14974 | Potency, µM (series often up to 92.2 µM), for inactives: at the top dose inhibition of complex formation | actives 0.031% (n = 340,000); active = rising FRET ratio curve, often small or poorly fitted; inconclusive = mostly compound fluorescence or quenching in the first reads; inactive = flat curves in all reads;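 note: potency is the fitted concentration of half-maximal effect; 0% = DMSO wells and 100% = buffer wells lacking importin beta; nearly all actives have a fitted effect of over 15% in size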
#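 Inhibition scored from the CFP 486 nm/YFP 530 nm FRET ratio 45 min after adding 0.125 microM importin beta to 50 nM Rango biosensor preincubated 5 min with compound (room temperature, PBS with DTT, Tween-20, BSA). No-importin wells as positive control.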
# GLA inh pH 4.5: qHTS Assay for Inhibitors of Human alpha-Galactosidase at pH 4.5 | Alpha-galactosidase A (Homo sapiens), P06280 | purified enzyme, 4-MU-alpha-Gal fluorescence, pH 4.5 | activity change, negative = inhibition, % at 105 µM | 230,000 tested, under 10 active | AID 1467, 2008; inconclusive = small, poorly fitted or top-dose-only inhibition, or a rising curve; inactive = flat fitted curve, though single readings scatter; no compound was filed as active;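 note: 0% = full activity with enzyme and -100% = basal without enzyme; dose as in the result columns while the protocol names 77 µM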
# Target sequence (P06280 whole entry, looked up): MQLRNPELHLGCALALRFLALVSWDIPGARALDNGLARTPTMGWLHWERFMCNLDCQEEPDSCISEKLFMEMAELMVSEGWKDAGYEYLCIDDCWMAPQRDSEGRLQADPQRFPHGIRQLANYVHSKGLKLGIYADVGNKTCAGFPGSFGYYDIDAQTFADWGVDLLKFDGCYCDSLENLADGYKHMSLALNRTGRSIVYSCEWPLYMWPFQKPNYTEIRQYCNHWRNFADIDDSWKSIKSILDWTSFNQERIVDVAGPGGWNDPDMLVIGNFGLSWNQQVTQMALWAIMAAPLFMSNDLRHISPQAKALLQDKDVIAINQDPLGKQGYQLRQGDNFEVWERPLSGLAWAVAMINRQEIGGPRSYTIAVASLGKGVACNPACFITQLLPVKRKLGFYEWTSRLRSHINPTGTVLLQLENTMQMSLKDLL
# miR-21 FLuc: qHTS Assay for Modulators of miRNAs and/orActivators of miR-21 | 340,000 tested, under 10 active | HeLa miR-21 FLuc reporter, luciferase, 48 h | AID 2288, 2010 | Potency, µM (series often up to 38.3 µM), inactives show at the top dose reporter change, positive = more light; active = well fitted rising curve with a large enough effect; inconclusive = small, poorly fitted or top-dose-only effect; inactive = no such curve, though single readings can be large or run the other way;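 note: % of control where 0% means no effect; miR-21 action dims this reporter so a rising signal means less miR-21 action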
#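 Luminescence from a firefly luciferase reporter carrying a miR-21 binding site downstream, stably expressed under a CMV promoter in HeLa cells that make miR-21 endogenously, reports miRNA modulation after 48 h compound exposure up to approximately 40uM final.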
# Rango dissoc inh: qHTS Assay for Inhibitors of RanGTP induced Rango (Ran-regulated importin-beta cargo) - Importin beta complex dissociation | Potency, µM (top dose mostly 46.1 µM), inactives show at the top dose activity change, negative = inhibition | actives 0.071% (n = 340,000) | AID 540253, 2011 | Snurportin-1 (Homo sapiens) + GTP-binding nuclear protein Ran (Homo sapiens) + Importin … | Biochemical FRET Rango-importin beta, RanGTP-induced dissociation; active means falling FRET ratio curve, often poorly fitted, with flat reads before Ran was added; inconclusive means other falling curves, or compound fluorescence or quenching; inactive means flat or rising ratio curve;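 note: potency is the fitted concentration of half-maximal effect; % of control where 0% means no effect; nearly all actives have a fitted effect of over 45% in size; -100% = wells without RanGTP and RCC1; the record marks most hits as doubtful in a second field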
#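 Rango FRET biosensor (snurportin-1 IBB flanked by N-terminal EYFP and C-terminal CFP10) at 0.1 uM, with 0.25 uM importin beta in PBS, 1mM DTT, 0.02% Tween-20, 0.1% BSA. 0.6 uM Ran, 2mM GTP and 0.2 uM RCC1 were then added for 45 min at room temperature. Inhibition read as loss of FRET rise.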
# * = called active by the depositor; ? = inconclusive; · = no result given; & = joins results of further samples. Only part of the results is shown (hit frequency here may not be typical).
# Screens in order: Rango-impB inh, GLA inh pH 4.5, miR-21 FLuc, Rango dissoc inh
Cc1ccc(S(=O)(=O)c2nc(Nc3ccccc3C#N)sc2Cl)cc1
  -1.0%, 11, 0%, 1%
Cn1c(/C(C#N)=C(\O)c2ccc(S(=O)(=O)N3CCCCC3)cc2)nc2ccccc21
  -2.0%, 1, -4%, -14%
COc1ccc(C(CNC(=O)c2ccc(S(=O)(=O)N3CC(C)CC(C)C3)cc2)N(C)C)cc1 (stereo not drawn)
  -0.2%, ·, ·, -3%
CCOC(=O)CN1C(=O)N[C@@H](c2cccs2)C(C(C)=O)=C1C
  4.6%, 2, ·, -7%
CCOC(=O)C1CCCN(C(=O)/C=C/c2ccccc2[N+](=O)[O-])C1 (stereo not drawn)
  0.4%, -4, -13%, -13%
CC(C)NC1CS(=O)(=O)CC1O (stereo not drawn)
  -1.8%, 0, 0%, -7%
O=C(Cn1nc(C(=O)O)c2ccccc2c1=O)NCCC1=CCCCC1
  -3.3%, -1, -2%, 3%
COc1ccc(Cl)cc1NC(=O)CS(=O)(=O)c1cccc2nsnc12
  -3.1%, -1, 0%, -3%
COc1ccc(-c2cc(C3CCN(C(=O)OC(C)(C)C)CC3)[nH]n2)cc1
  -3.2%, -4, 3%, -12%
O=C1CC[C@@H](OCc2ccccc2)CCN1CC[C@H](Sc1ccccc1)c1ccccc1
  0.3%, ·, -3%, -11%
O=c1[nH]c(/C=C/c2cccc(Br)c2)nc2ccccc12
  4.3%, ·, ·, 8%
Cc1cccc(C(O)C(O)c2cccc(C)n2)n1 (stereo not drawn)
  -0.4%, ·, ·, 10%
ON=C1CCCC2CCCCC12 (stereo not drawn)
  1.5%, ·, ·, 1%
COc1ccc(OC)c(/C(O)=C/C(=O)C(=O)Nc2ccccc2OC)c1
  2.6%, 1, -6%, -13%
Cc1ccccc1NC(=O)c1cc([N+](=O)[O-])ccc1NCCN1C(=O)CCC1=O
  -0.5%, -7, 0%, -5%
O=C(CCCCn1c(=O)[nH]c2ccccc2c1=O)NCCc1c[nH]c2ccccc12
  1.0%, 6, -1%, -5%
CC(=O)OCc1cc2cccc(C)c2[nH]c1=O
  0.3%, -6, 0%, -17%
O=C1OCCN1C(=O)[C@H]1[C@H](c2ccc([N+](=O)[O-])cc2)C(c2cccc(Cl)c2)=NN1c1ccccc1
  9.8%, -10&-18, 0%, 14%
CC(=O)Nc1ccc(C(=O)Nc2nnc(CCc3ccccc3)s2)cc1
  -0.6%, ·, -6%, 20%
Cc1ccc(C(=O)Nc2cccc3cccnc23)cc1C
  3.4%, ·, -57%, -11%
O=C(c1ccco1)N1CCN(C(=O)c2cn(-c3ccccc3)nc2-c2ccc(F)cc2)CC1
  -3.7%, ·, ·, -7%
Cc1ccc(S(=O)(=O)NCC(=O)OCc2cc(=O)oc3cc(C)ccc23)cc1
  -0.9%, ·, ·, 9%
O=C(Nc1ccccn1)c1cccc(S(=O)(=O)N2CCCC2)c1
  -0.7%, ·, -4%, -10%
Cc1ccc2cc(/C=N/NC(=O)[C@@H]3CCCN3)c(Cl)nc2c1
  0.6%, -5, -15%, -12%
Cc1ccc(O)c(NC(=S)NC(=O)/C=C/c2ccco2)c1
  ?, 6, 0%, ?
CCOc1c2ccc(C(=O)NCc3ccco3)cc2nn1CCOC
  -0.1%, 9, -2%, -11%
CCCCN1C(=O)/C(=C2/Sc3ccc(OC)cc3N2CC)SC1=S
  ?, ·, -3%, ?
O=C(CSc1ncn[nH]1)Nc1c(F)cc(F)cc1Br
  -2.9%, -20, 0%, 3%
CC(=O)Nc1ccc(NC(=O)c2ccc(NC(=O)c3ccccc3)cc2)cc1
  1.4%, ·, -9%, -5%
COc1ccc([C@@]2(O)c3c(ccc(CC=C(C)C)c3O)NC(=O)[C@@H]2OC)cc1
  3.0%, 9, 1%, 14%
Cc1cccc(CNS(=O)(=O)c2ccc(-c3cnc(C4CC4)o3)cc2)c1
  0.9%, ·, 21%&13%, 7%
COc1cc(C=O)ccc1OCc1cn(CC(=O)c2ccc(O)cc2)nn1
  -5.9%, ·, ·, 14%
CCSc1ccccc1C(=O)n1nnc2ccccc21
  0.5%, 6, 13%, 19%
Cc1cc(COc2ccccc2OCc2cc(C)no2)on1
  -1.2%, -5, -2%, -1%
CCOC(=O)N1CCN(c2ccc(C(=O)c3ccccc3)cc2F)CC1
  -0.5%, -1, -15%, -2%
COC(=O)CCC(C)N1CCC(Oc2ccc(C(=O)NCc3ccccn3)cc2)CC1 (stereo not drawn)
  -4.8%, ·, 0%, -2%
COC(=O)N1N=C(c2ccc(Br)cc2)CC1(O)C(F)(F)F (stereo not drawn)
  1.5%, -1, -57%, 1%
Cc1c(NC(=O)Nc2ccccc2[N+](=O)[O-])c(=O)n(-c2ccccc2)n1C
  ?, ·, 0%, 14%
CC(C)(C(N)=O)c1ccccc1
  3.0%, -2, -2%, 2%
COc1ccccc1C(=O)N/C(=C\c1cn(C)c2ccccc12)C(=O)N1CCOCC1
  -0.3%, ·, -12%, 1%
O=C(/C=C/c1ccc([N+](=O)[O-])s1)N1CCCC1
  0.7%, -9, ?, -24%
Cc1cccc(COCC(CC(C)C)N2CCN(C(=O)c3ccc(C(C)(C)C)cc3)CCC2=O)c1 (stereo not drawn)
  -2.3%, 0, 1%, -5%
CCOC(=O)c1[nH]c(C)c(C(=O)NCCCOC(C)C)c1C
  3.1%, 4, 0%, 14%
O=C(c1noc2c1CCc1ccccc1-2)N1CCCc2ccccc21
  -1.9%, 4, -32%, -7%
COCc1c(C(=O)N2CCN(c3ncccn3)CC2)oc2ccccc12
  -0.3%, ·, ·, 6%
Cn1c(=O)c2c(nc(N3CCCCCC3)n2CC(O)COc2ccc(Cl)cc2)n(C)c1=O (stereo not drawn)
  -2.1%, 2, 0%, 21%
Nc1nc(-c2ccc([N+](=O)[O-])cc2)cs1
  -0.2%, -8, -34%, -11%
CC(C)(C)c1ccc(C(=O)NNC(=O)Cc2ccccc2)cc1
  -1.2%, -6, -51%, -1%
COc1ccc(-c2cc(-c3n[nH]c(=S)n3-c3ccccc3Cl)[nH]n2)cc1
  3.4%, -4, -17%, 11%
O=C(c1ccccc1Br)N1CCCC(c2nc(-c3cccs3)no2)C1 (stereo not drawn)
  0.8%, -5, -7%, -11%

# Later entries
# Screens in order: Rango-impB inh, GLA inh pH 4.5, miR-21 FLuc, Rango dissoc inh
Cc1ccc(NC(=O)CSc2nc(N)cc(=O)[nH]2)cc1Cl
  ?, -15, -8%, 1%
CC1CCc2c(C(=O)Nc3cccc(-c4nn[nH]n4)c3)csc2C1 (stereo not drawn)
  1.3%, ·, -32%, -28%
CCOC(=O)c1oc2nc(CC(C)C)c3c(c2c1N)CCCC3
  -0.7%, -2, -1%, -3%
Cc1cnn(Cc2cccnc2)c1N
  1.4%, 7, -3%, 2%
CCOc1ccccc1NC(=O)COC(=O)COc1c(Cl)cc(Cl)c2ccc(C)nc12
  -1.5%, ·, ·, -2%
CS(=O)(=O)c1ccc2nc(NC(=O)c3ccccc3Cl)sc2c1
  -1.5%, ·, -23%, -25%
O=C(CSc1n[nH]c(=O)n1Cc1ccco1)Nc1ccccc1Cl
  2.8%, 11, 10%, 31%
COc1cccc(/C(O)=C2/C(=O)C(=O)N(Cc3cccnc3)C2c2ccco2)c1 (stereo not drawn)
  0.3%, -3, -8%, 4%
Cc1c(C(=O)OC2CCCCC2)sc2nc[nH]c(=O)c12
  -3.2%, 0, -40%, -15%
Nc1ccc(C(=O)N/N=C/c2cn(Cc3ccccc3)c3ccccc23)cc1
  -0.9%, ·, -11%, 1%
O=C(N/N=C/c1ccccn1)c1cccnc1
  -1.7%, -4, 4%, 9%
CCOC(=O)C1=C(C)NC(C)=C(C(=O)OCC)C1c1cccs1
  -2.2%, 4, -4%, -12%
CCN(CC)S(=O)(=O)c1ccc(NC(=O)CCN2C(=O)C3CC=CCC3C2=O)cc1 (stereo not drawn)
  -0.8%, ·, ·, 14%
CCCCOC(=O)/C(=C/C=C/c1ccccc1)NC(=O)c1ccccc1
  -1.1%, -8, -4%, -4%
Cc1cccc(-c2nnc(SCc3cc(=O)[nH]c4ccccc34)n2C)c1
  2.5%, 7, -2%, 7%
CC1(c2ccccc2)NC(=O)N(CCOc2ccccc2)C1=O (stereo not drawn)
  -0.8%, 5, -1%, 1%
COc1ccc(C(=O)NCc2c(C)nn(Cc3ccccc3)c2C)cc1S(=O)(=O)N1CCOCC1
  -0.4%, ·, ·, 1%
CCOc1ccc(CNc2ccc3c(c2)nc(C)n3C)cc1
  1.6%, -1, -28%, -6%
CCSc1nc2ccccc2n1CC(=O)N1CCOCC1
  -5.1%, 10, -18%, 18%
Cc1ccccc1-c1cc(C(=O)NCC2CC2)nn1CC1CC(c2cccc([N+](=O)[O-])c2)=NO1 (stereo not drawn)
  4.3%, ·, ·, 9%
O=C(CC1SC(N2CCOCC2)=NC1=O)Nc1ccc(F)cc1 (stereo not drawn)
  2.2%, ·, ·, 1%
CN(CC(=O)NC(=O)Nc1ccccc1F)Cc1ccccc1
  2.7%, ·, ·, -23%
Cc1ccc(N2CC(C(=O)OCC(=O)Nc3ccc(F)cc3F)CC2=O)cc1 (stereo not drawn)
  -1.2%, ·, ·, 24%
O=C(NCc1ccc2c(c1)OCO2)c1ccc(CSCc2cccc(Cl)c2)o1
  7.2%, -4, -18%, 1%
O=C(O)CSCCOc1ccc(OCCSCC(=O)O)cc1
  -2.3%, 1, -4%, 1%
CCOc1ccc2nc(NC(=O)C3=NN(c4ccccc4)C(=O)CC3)sc2c1
  0.2%, 1, -21%, 26%
Cc1cc(/C=C\c2nc(O)c([N+](=O)[O-])c(=O)[nH]2)c(C)n1-c1ccccc1
  -0.5%, -5, -3%, -2%
Cc1oc(-c2cccc(F)c2)nc1CN1CCCCC1CCn1cccn1 (stereo not drawn)
  0.1%, -6, -4%, 9%
Cc1ccc(S(=O)(=O)N2CCN(c3cnn(C)c(=O)c3Cl)CC2)cc1
  -0.1%, 5, 1%, 1%
N=c1sccn1CC(=O)N1N=C(c2ccc(Cl)cc2)CC1c1ccco1 (stereo not drawn)
  5.4%, 3, 6%, -4%

# Three compounds from above, limited to miR-21 FLuc.
canonical_smiles | miR-21 FLuc
Cc1oc(-c2cccc(F)c2)nc1CN1CCCCC1CCn1cccn1 (stereo not drawn) | -4%
Cc1ccc(S(=O)(=O)N2CCN(c3cnn(C)c(=O)c3Cl)CC2)cc1 | 1%
N=c1sccn1CC(=O)N1N=C(c2ccc(Cl)cc2)CC1c1ccco1 (stereo not drawn) | 6%

# The listing continues:
# Screens in order: Rango-impB inh, GLA inh pH 4.5, miR-21 FLuc, Rango dissoc inh
COC(=O)c1sccc1NC(=O)Nc1cc(C)ccc1C
  -0.6%, 7, -3%, -7%
Cc1ccc(SCC(=O)OCC(=O)N(C)C2CCS(=O)(=O)C2)cc1C (stereo not drawn)
  6.9%, ·, ·, 1%
CC(=O)c1ccc(NC(=O)[C@@H]2CCCN2C(=O)OC(C)(C)C)cc1
  3.9%, ·, -43%, 1%
COc1cccc(C(=O)Nc2cc3c(cc2Br)OCCCO3)c1
  -2.3%, 3, -74%, 9%
CC(=O)C1(O)CCC2C3CC(C)C4=CC(=O)C=CC4(C)C3(F)C(O)CC21C (stereo not drawn)
  0.8%, ·, ·, 3%
C=Cn1c(C(=O)O)cc(CC)c1-c1ccccc1
  3.9%, 0, -3%, -4%
Cc1ccccc1-c1nnc(SCC(=O)N(C)C2CCS(=O)(=O)C2)n1C (stereo not drawn)
  0.1%, ·, ·, 18%
COc1ccc(CN2CCCC(C(=O)N3CCCCC3)C2)c(OC)c1 (stereo not drawn)
  -0.6%, ·, -1%, 7%
Cc1cccc(NC(=O)CSc2nnc([C@@H]3CCCN3C(=O)OC(C)(C)C)o2)c1C
  0.0%, 0, 22%, -5%
